# Screens deposited in PubChem BioAssay by several laboratories.
# Bfl-1 A1 inh: inhibitors of the anti-apoptotic protein A1, read as caspase activation. MEF A1-2A-BIM cells, Caspase-Glo 3/7 luminescence, 3 h; percent of clofoctol response, vehicle zero. caspase activation, % (no concentration beside the values). 330,000 compounds, 0.066% hits;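 active = over half of replicate activation scores above 10%, or exactly half above 10 with the replicate mean above 10; inconclusive = replicate mean below 10 yet half the replicates above 10; inactive = over half of replicates below 10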;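 note: wells of about 30 µL received 50 nL stock; many hits fall short of the cut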
# T cruzi inh: blocks replication of Trypanosoma cruzi; inhibition, % (test concentration not listed); 300,000 compounds, 1.4% hits; T. cruzi beta-gal in NIH3T3, luminescence, 90 h; AID 1885;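 active = mean inhibition across valid replicates above about 55%, limit read from the data; inconclusive = mean below that limit but half or more replicates reach it; inactive = mean below it, under half of replicates reach it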;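 note: signal also drops with host cell toxicity which is not excluded here; 0% = plate median of DMSO wells and 100% = zero luminescence signal; higher percent means less beta-gal luminescence so fewer parasites; stock transfer was 50 nL into about 50 µL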
# UCH37 inh: blocks the human deubiquitinase UCH37 | purified proteasome/UCH37, Ub-AMC cleavage fluorescence | inhibition, % (no concentration beside the values) | Q9Y5K5 | 330,000 compounds, 0.33% hits;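 active = mean of two replicates above 20%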;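 note: 0% = compound-free wells with enzyme and 100% = wells lacking proteasome; stock transfer was 100 nL into about 20 µL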
# Target sequence (Q9Y5K5 whole entry, looked up): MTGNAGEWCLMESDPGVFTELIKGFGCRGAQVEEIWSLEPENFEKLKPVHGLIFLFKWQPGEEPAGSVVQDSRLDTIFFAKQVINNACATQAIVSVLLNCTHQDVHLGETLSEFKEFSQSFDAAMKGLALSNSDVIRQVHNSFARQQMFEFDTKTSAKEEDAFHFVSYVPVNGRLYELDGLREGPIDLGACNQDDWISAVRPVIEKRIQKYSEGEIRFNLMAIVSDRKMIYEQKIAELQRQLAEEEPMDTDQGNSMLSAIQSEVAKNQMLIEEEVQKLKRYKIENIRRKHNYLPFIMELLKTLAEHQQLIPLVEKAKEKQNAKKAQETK
#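 Material: Human UCH37 enzyme supplied as purified proteasome complex | Schedule: 30 min compound-proteasome preincubation then 25 min substrate reaction, room temperature | Detection: AMC fluorescence from Ub-AMC cleavage, excitation 355 nm, emission 460 nm | Benchmarks: Wells without proteasome as full block, compound-free enzyme plus substrate as uninhibited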
# Ecoli rRNA inh: inhibitors of bacterial rRNA selective over humanized ribosomes. E. coli WT GFP vs humanized-ribosome RFP mutants, fluorescence, 24 h; hits give low values; DMSO median 0, no signal -100. GFP signal change (wild-type ribosome), % (no concentration beside the values). 350,000 compounds, 1.6% hits. AID 720706;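 active = significant combined selectivity score with lowered wild-type GFP, culture density cut under 30%, mutant RFP and density less affected; inactive = any of these conditions unmet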; note: one replicate is shown; some compounds called inactive have numbers as strong as hits
# FGF22 binding: shifts melting point of recombinant human FGF22 | recombinant FGF22 thermal shift, SYPRO orange fluorescence; percent of sucrose octasulfate shift, DMSO zero | calls only at 9.99 µM | 340,000 compounds, 1.5% hits | AID 651658;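 active = melting point raised past a set limit in the mean and every replicate; inconclusive = no clear call; three in four hits are not shown here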
# Target sequence (Q9HCT0 whole entry, looked up): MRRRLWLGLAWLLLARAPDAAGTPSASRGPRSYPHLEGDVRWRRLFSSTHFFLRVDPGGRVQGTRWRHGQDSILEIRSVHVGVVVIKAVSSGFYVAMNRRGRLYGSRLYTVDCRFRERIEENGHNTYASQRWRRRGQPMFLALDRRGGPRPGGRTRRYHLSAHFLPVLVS
# E coli growth: inhibitors of Escherichia coli growth; 330,000 compounds, 0.21% hits; OD600 absorbance (no concentration beside the values); OD600, 23 h; hits give low values; AID 1053175;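 active = OD600 absorbance below the run mean of sample wells minus 3.6 SD, in any replicate, cut at about 0.56 in these data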;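 note: stock transfer was 300 nL into about 60 µL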
# Beta cell apopt: blocks beta cell apoptosis. protection from apoptosis, % (concentration not given with the values). INS-1E cytokine-induced death, ATP luminescence, 48 h; percent of positive-control rescue, neutral wells zero. 300,000 compounds, 0.8% hits;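 active = all replicates at 75% or more, or half of them and the mean; inconclusive = half reach 75% but not the mean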;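 note: 0% = cytokine-treated negative control wells and 100% = positive control rescue; higher means more ATP so stronger rescue from cytokine killing; wells of about 40 µL received 100 nL stock; the first replicate is given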
# AF4-AF9 inh: blocks AF4 peptide binding to human AF9. P42568. AlphaScreen, biotin-AF4 peptide binding to FLAG-AF9. inhibition, % at 10 µM. 350,000 compounds, 0.47% hits;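 active = every replicate reaching a set inhibition limit, whatever the replicate mean, cut at about 25% in these data; inconclusive = mean inhibition reaches that limit but some replicates miss it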;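 note: 0% = plate neutral control median and 100% = total signal loss; the record names both 10 and 1 µM as test concentration; the first replicate is given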
# Target sequence (P42568 whole entry, looked up): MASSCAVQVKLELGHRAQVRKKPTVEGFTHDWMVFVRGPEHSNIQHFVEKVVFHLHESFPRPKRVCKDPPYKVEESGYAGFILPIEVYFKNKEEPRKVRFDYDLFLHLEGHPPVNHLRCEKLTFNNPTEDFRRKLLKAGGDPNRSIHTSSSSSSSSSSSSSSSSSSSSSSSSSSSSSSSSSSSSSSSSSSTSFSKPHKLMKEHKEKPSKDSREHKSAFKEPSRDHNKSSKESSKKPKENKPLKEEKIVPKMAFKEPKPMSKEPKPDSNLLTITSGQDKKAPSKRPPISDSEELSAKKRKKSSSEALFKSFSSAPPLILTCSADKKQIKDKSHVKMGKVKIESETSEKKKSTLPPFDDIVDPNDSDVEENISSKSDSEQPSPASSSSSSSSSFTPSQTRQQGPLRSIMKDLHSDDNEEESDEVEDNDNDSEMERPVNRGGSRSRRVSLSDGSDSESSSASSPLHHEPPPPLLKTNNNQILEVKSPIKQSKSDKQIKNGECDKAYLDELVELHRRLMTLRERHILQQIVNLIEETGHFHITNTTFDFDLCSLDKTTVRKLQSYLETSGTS
# Ecoli rRNA inh OD600: also measured in Ecoli rRNA inh; calls as there; OD600 change, %; measured here: OD600 growth;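 optical density of the mix in the first replicate; 0 = DMSO median and -100 = no signal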
# Ecoli rRNA inh RFP: also measured in Ecoli rRNA inh; calls as there; RFP signal change, %; measured here: RFP humanized mutant strains;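 first replicate; 0 = DMSO median and -100 = no signal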
# * hit, by the source's call; i = inactive; ? = inconclusive; . = no result given.
SMILES,Bfl-1 A1 inh,T cruzi inh,UCH37 inh,Ecoli rRNA inh,Ecoli rRNA inh OD600,Ecoli rRNA inh RFP,FGF22 binding,E coli growth,Beta cell apopt,AF4-AF9 inh
CC(=O)N1CCN(C(=O)CN2C(=O)NC(C)(c3ccc4ccccc4c3)C2=O)CC1 (centres undefined),0.4,.,0.8,.,.,.,i,0.65,1,0.8
Cc1ccc(NCC(=O)N/N=C\c2ccc([N+](=O)[O-])o2)cc1,0.0,52,.,-48,-44,-16,i,.,19,9.6
O=C(COc1ccccc1)NC1CCCc2ccccc21 (centres undefined),-1.1,1,1.7,0,7,-4.1,i,0.68,-4,-5.8
O=c1c2c(-c3cccs3)csc2[nH]c(=S)n1-c1ccccc1,-0.6,-8,.,.,.,.,.,0.69,1,.
Cc1cc(Cl)ccc1OCC(=O)NC(=S)Nc1ccc(Cl)cn1,0.7,.,4.8,2,5,-3.8,i,0.66,3,-0.5
O=C(N/N=C/c1ccc(-c2ccccc2)o1)c1ccccc1O,-1.0,-5,.,3,9,-1.0,i,.,8,2.8
Nc1c(Cl)c(Cl)nc(C(=O)OCC(=O)N2CCCC2=O)c1Cl,0.8,-8,8.0,11,9,2.1,i,0.64,.,-1.5
COc1ccc(OC)c(NS(=O)(=O)c2cc3c4c(c2)CCN4C(=O)CC3)c1,.,5,1.7,-3,3,-0.7,i,0.69,.,-0.5
CCCCCCNC(=O)c1cn(CC)c2cc(N3CCN(C)CC3)c(F)cc2c1=O,1.5,26,-36,-54,-77,-16,i,0.067*,4,8.1
COc1ccc(C(=O)/C=C2\Sc3ccccc3N2C)cc1,-0.3,17,-62,4,15,4.3,i,0.67,10,-2.4
Cc1[nH]c2ccccc2c1C(c1ccccn1)N1CCC(C(N)=O)CC1 (centres undefined),0.2,-4,-1.9,.,.,.,.,0.72,-9,.
CCCCn1c(-c2cccnc2)nc2cc3[nH]c(=O)c(C(C)C)nc3cc21,1.1,-20,-280,-12,-15,5.6,i,0.71,1,.
COc1ccc(CC(=O)OC2CCCN(C)C2)cc1 (centres undefined),-0.5,-14,5.0,9,12,-2.1,i,0.67,2,-1.2
Cc1csc(=O)n1CC(=O)OC(C)C(=O)Nc1ccc(F)c(F)c1F (centres undefined),-1.3,-2,3.4,4,5,1.5,.,0.68,-9,-0.7
CCOc1cc(-c2sc(Nc3cc(C)ccc3OC)n[n+]2-c2ccccc2)ccc1OC,-0.4,.,1.7,7,10,2.3,i,.,94*,16
Cc1ccc(OCC(=O)Nc2ccc(N3CCN(C(=O)c4ccco4)CC3)cc2)cc1C,1.0,17,2.8,26,19,4.9,.,0.69,5,1.8
CCCCCCCCCCCCN1[C@@H](CC(C)=O)c2cc(F)ccc2S1(=O)=O,0.9,21,1.7,0,-19,-1.9,i,.,6,.
COC(=O)Cc1[nH]nc2c1C(c1cc(OC)c(OC)c(OC)c1)C(C#N)=C(N)O2 (centres undefined),1.1,-5,4.0,3,4,-5.9,i,0.69,1,2.8
O=C(CSc1nnc2ccc(-c3ccccn3)nn12)NCC1CCCO1 (centres undefined),0.0,-6,-0.6,20,18,8.0,.,0.69,-2,1.4
COc1ccccc1NC(=O)CCN1C(=O)C2CC=CCC2C1=O (centres undefined),1.7,-2,-0.1,9,6,-0.3,i,0.69,-5,-1.3
CCCCn1c(N)c(N(CCOC)C(=O)CSc2ccccc2C)c(=O)[nH]c1=O,0.3,-4,-2.6,-2,6,-0.4,i,0.69,-2,1.5
COc1ccc(N=CC2=C(O)c3ccccc3C2=O)c(OC)c1,-0.5,19,6.0,.,.,.,.,0.81,15,.
CCOc1ccc(C(=O)OCC(=O)NC2CCCC2)cc1OCC,1.4,13,1.7,2,6,2.4,i,0.68,-5,-0.5
CCCCOc1nc2ccccc2nc1C(C#N)S(=O)(=O)c1ccccc1 (centres undefined),0.1,0,-110,-8,-4,3.3,i,0.73,-3,-0.2
CN(C)/C=C/C(=O)c1cc(N2CCOCC2)ccc1[N+](=O)[O-],0.6,6,12,-1,14,2.3,i,0.69,-2,-0.4
COc1ccc(C(=S)N2CCCCCC2)cc1,-0.3,-5,1.5,.,.,.,.,0.69,-3,.
Cc1ccc2occ(C(c3nnnn3Cc3ccccc3)N3CCOCC3)c(=O)c2c1 (centres undefined),-0.1,-4,0.1,.,.,.,.,0.74,6,.
Cc1ccc(Cn2ccc(C3CC3)n2)cc1,1.3,-8,-0.5,4,11,0.9,i,0.65,-3,3.7
Cc1ccc(-c2nc3ncccn3c2Nc2ccccc2C)o1,0.5,14,.,3,-10,2.7,i,.,0,2.1
Cc1cccc(C)c1NC(=O)C(c1ccc(Cl)cc1Cl)N1CCCCC1 (centres undefined),?,13,0.8,.,.,.,.,0.67,-2,.
CC(C)(C)OC(=O)NCCCCCNC(=O)c1[nH]cnc1C(=O)Nc1ccccc1,-0.7,.,-0.2,-17,-25,25,i,0.68,8,1.4
O=C(Nc1cccc(S(=O)(=O)N2CCCCC2)c1)c1cc2ccccc2o1,0.4,.,-1.2,-24*,-18*,-0.9*,i,0.71,-4,6.1
Cc1cc(Br)ccc1SCC(=O)NCC(c1ccco1)N1CCCCC1 (centres undefined),0.3,20,0.2,-1,-10,5.4,i,0.67,.,2.6
CCn1c(=O)n(CC)c2cc(N3CCCC3)c(NC(=O)c3ccccc3)cc21,0.5,0,5.2,-9,-11,-1.2,i,0.64,-2,-5.0
O=C(c1nc(-c2ccccc2)n(-c2ccccc2)n1)N1CCN(S(=O)(=O)c2ccccc2)CC1,0.6,4,-0.5,.,.,.,.,0.73,2,.
O=C(O)C1CCC(NSc2ccccc2[N+](=O)[O-])CC1 (centres undefined),0.9,-3,2.2,9,8,-2.1,i,0.7,-24,0.4
COC(=O)C1=C(C)N(Cc2ccco2)C(=O)N[C@@H]1c1cccc(C(F)(F)F)c1,1.1,-8,6.1,.,.,.,.,.,4,.
CCc1ccc(-c2cc(C(=O)NCCCn3ccnc3)c3ccccc3n2)s1,-1.7,13,i,.,.,.,.,0.7,6,.
CCCCOc1ccc(C(=O)N/C(=C/C=C/c2ccccc2)C(=O)NC)cc1,-0.2,6,4.4,-19,-17,-2.6,i,0.7,-2,2.4
CCOC(=O)C1CCCN(c2c(NCCN3CCCCC3C)c(=O)c2=O)C1 (centres undefined),0.1,-15,3.2,5,10,-1.0,i,0.71,-7,-1.7
CCC1CCCCN1CCCNC(=O)Cn1ncc2c([nH]c3ccc(C)cc32)c1=O (centres undefined),0.6,6,-23,.,.,.,.,0.62,-5,.
Cc1cccc(NC(=O)c2cc(-c3cc(C)ccc3O)n[nH]2)c1,-4.5,-8,3.3,-2,16,1.0,i,0.7,-7,-0.8
COc1cccc(-n2cc(-c3ccc(F)cc3)[nH]c2=S)c1,0.2,12,3.4,6,6,5.5,i,0.66,4,5.9
O=C(Nc1ccc(N2CCOCC2)c([N+](=O)[O-])c1)c1ccco1,-0.2,8,7.0,-7,-7,-5.0,i,0.64,-7,1.9
CCOc1cccc(-c2nnc3n2N=C(c2cc(OC)ccc2OC)CS3)c1,0.8,31,-1.2,.,.,.,.,0.76,22,.
CCOc1cc(NS(=O)(=O)c2ccc(OC)cc2)c(OCC)cc1NC(=O)c1ccco1,-0.3,26,4.5,.,.,.,.,0.73,-7,.
COc1cc([N+](=O)[O-])ccc1NC(=O)C[n+]1cccc(C(C)=O)c1,0.8,-9,8.0,9,5,0.8,i,0.62,-4,2.4
Cc1cccc(NC(=O)CSc2nc3c([nH]c4ccccc43)c(=O)n2C)c1,-0.1,-7,0.3,5,3,-3.2,i,0.74,20,-7.6
CCCCCCn1c(SCC(=O)Nc2cc(C)on2)nc2ccccc2c1=O,0.9,30,-2.8,.,.,.,.,0.74,10,.
COc1ccc(N2CCN(CC(=O)Nc3cc(C)cc(C)c3)CC2)cc1,-1.3,8,0.6,-3,-6,0.6,i,0.7,1,5.5
# Following part:
SMILES,Bfl-1 A1 inh,T cruzi inh,UCH37 inh,Ecoli rRNA inh,Ecoli rRNA inh OD600,Ecoli rRNA inh RFP,FGF22 binding,E coli growth,Beta cell apopt,AF4-AF9 inh
CCOc1ccc(/C(CCC(=O)O)=N/NC(=O)c2cccc(S(=O)(=O)Nc3ccccc3OC)c2)cc1,-0.3,.,.,5,-9,4.5,i,.,1,-0.9
COc1ccc(CN2CN(C3CCCC3)CSC2=S)cc1,0.2,-14,0.1,2,11,1.4,i,0.67,-3,-3.2
Cc1ccc2c(c1C)NC(=O)CC(c1ccccc1O)=N2,-0.2,11,0.5,8,1,0.4,i,0.66,3,.
COc1ccc(-c2nnc(SCC(=O)c3cccs3)o2)c(OC)c1,-2.2,-8,2.2,-2,-5,2.3,.,0.68,-7,.
O=C(Nc1ccc(F)c(Cl)c1)Nc1csc2ccccc12,0.8,26,5.4,-33,-42,-1.5,i,0.6,83*,-2.3
CCOc1cc(/C=N\NC(=O)Cn2nnc3ccccc32)ccc1O,-0.1,-2,.,1,12,0.3,i,.,-3,-1.8
COC(=O)c1oc2ccc(Cl)cc2c1NC(C)=O,-0.2,-17,0.7,.,.,.,.,0.67,-2,.
COc1ccc(-c2nc(C#N)c(NC(C)C)o2)cc1,0.1,-4,-133,-14,-15,-9.0,.,0.69,.,-24
Cc1nc2oc3ccccc3c(=O)c2cc1C(=O)O,-5.2,-4,1.6,6,8,1.4,i,0.67,0,-0.5
Cc1cccc(NC(=O)[C@@H]2CCCN2C(=O)OC(C)(C)C)c1,-1.6,4,0.0,-1,1,-2.5,i,0.62,-8,-1.9

# Two of these compounds, set out differently:
# Screens in order – Bfl-1 A1 inh, T cruzi inh, UCH37 inh, Ecoli rRNA inh, Ecoli rRNA inh OD600, Ecoli rRNA inh RFP, FGF22 binding, E coli growth, Beta cell apopt, AF4-AF9 inh
CCOc1cc(/C=N\NC(=O)Cn2nnc3ccccc32)ccc1O
→ -0.1, -2, ., 1, 12, 0.3, i, ., -3, -1.8
COC(=O)c1oc2ccc(Cl)cc2c1NC(C)=O
→ -0.2, -17, 0.7, ., ., ., ., 0.67, -2, .

# (list continues)
SMILES,Bfl-1 A1 inh,T cruzi inh,UCH37 inh,Ecoli rRNA inh,Ecoli rRNA inh OD600,Ecoli rRNA inh RFP,FGF22 binding,E coli growth,Beta cell apopt,AF4-AF9 inh
COc1ccc(NC(=O)CN(C)C(=O)C(CCSC)NC(=O)c2ccccc2)cc1 (centres undefined),-1.3,-12,-1.1,-1,-1,-3.6,i,0.68,-2,-9.4
COc1ccc(C(C)=O)c(Oc2ccc(S(=O)(=O)N3CCOCC3)cn2)c1,0.8,.,-19,12,9,0.4,i,0.67,-5,-1.5
O=[N+]([O-])c1ccc(-n2nnnc2CN2CCOCC2)cc1,0.3,-17,2.2,0,12,-3.5,i,0.68,0,-2.4
CCSc1ccc2nnc(-c3cccs3)n2n1,0.8,-1,1.1,-26,-38,-6.0,i,0.71,.,0.5
O=[N+]([O-])c1cc([N+](=O)[O-])c2c(=Nc3ccccc3)n(-c3ccccc3)n(O)c2c1,0.3,58*,14,8,10,6.4,i,0.69,54,20
Cc1cc2c(=O)[nH]c(Cc3ccccc3)nc2s1,-0.1,5,4.7,.,.,.,.,0.69,2,.

# An excerpt; the hit share may differ from the screen's.
